Screening data (PubChem BioAssay)
MARV entry inh: inhibitors of Marburg virus binding or cell entry; 300,000 tested, 1.8% active; Potency, µM (series often up to 37.8 µM), inactives show top-dose activity change, negative = inhibition, actives largely listed as inhibitors; Marburg virus pseudotyped entry inhibition, cell reporter; control for the full effect not named in the record; about a third of the inactives were read at about 46 µM; active = well fitted inhibition curve with a large enough effect; inconclusive = small, poorly fitted or top-dose-only effect, or effect the other way; inactive = flat fitted curve, though single readings scatter; tested in HEK293 cells; about a fifth of its hits are not listed in these tables; note: % is set by controls: 0 for no effect and ±100 for the full control effect; luciferase read-out
Cruzain inh noDet: cruzain (T. cruzi) inhibition without detergent. P25779. purified cruzain, Z-FR-AMC fluorescence, no detergent. Potency, µM, for the others: max response, negative = inhibition, actives largely listed as inhibitors. 200,000 tested, 2.3% active;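 note: plate controls were enzyme without inhibitor for no effect and buffer without enzyme for full effect; nearly all actives have a fitted effect of over 40% in size; top concentration of the series not given in the record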
Target sequence (P25779 123-467 limits assumed): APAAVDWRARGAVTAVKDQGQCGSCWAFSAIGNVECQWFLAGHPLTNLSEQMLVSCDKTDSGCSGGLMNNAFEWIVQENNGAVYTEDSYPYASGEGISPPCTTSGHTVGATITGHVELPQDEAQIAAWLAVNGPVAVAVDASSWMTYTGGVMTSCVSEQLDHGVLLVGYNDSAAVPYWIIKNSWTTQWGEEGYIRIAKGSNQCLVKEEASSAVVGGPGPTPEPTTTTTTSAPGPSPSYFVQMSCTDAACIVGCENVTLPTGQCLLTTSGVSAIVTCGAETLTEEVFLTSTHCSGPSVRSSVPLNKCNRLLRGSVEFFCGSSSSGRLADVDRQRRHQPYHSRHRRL
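Purified cruzain at 1.5 nM, pre-incubated 15 min with compound at room temperature in 100 mM sodium acetate pH 5.5, 5 mM DTT, 0.00005% Triton X-100. Reaction started with 2 uM Z-FR-AMC; AMC fluorescence increase over 60 s gives rate.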
Lassa entry inh: inhibitors of Lassa virus binding or cell entry. Lassa virus pseudotype entry inhibition, cell reporter; control for the full effect not named in the record. Potency, µM (doses to about 37.9 µM), for the others: top-dose activity change, negative = inhibition, most hits filed as inhibitors. 300,000 tested, 1.2% active; active means well fitted inhibition curve with a large enough effect; inconclusive means small, poorly fitted or top-dose-only effect, or effect the other way; inactive means flat fitted curve, though single readings scatter; tested in HEK293 cells; note: % is set by controls: 0 for no effect and ±100 for the full control effect; nearly all actives have a fitted effect of over 50% in size; luciferase read-out
StopGo reporter: lowers the luciferase signal of an FMDV 2A StopGo reporter. human cells with a luciferase reporter of 2A StopGo recoding; control for the full effect not named in the record. Potency, µM (series often up to 57.9 µM), for inactives: at the highest dose signal change, negative = less light. 410,000 tested, 1.2% active. AID 1159524; active = well fitted falling curve with a large enough effect; inconclusive = small, poorly fitted or top-dose-only effect; inactive = no such curve, though single readings can be large or run the other way; tested in HEK293T cells; note: % is set by controls: 0 for no effect and ±100 for the full control effect; nearly all actives have a fitted effect of over 45% in size; luciferase light after 4 h
SARS PLP yeast: inhibitors of SARS-CoV papain-like protease in yeast; Potency, µM (top dose mostly 32.9 µM), for the others: at the top dose activity, positive = growth rescue; S. cerevisiae expressing SARS-CoV PLpro, growth rescue; control for the full effect not named in the record; 330,000 tested, 0.19% active; active means well fitted rising curve with a large enough effect; inconclusive means small, poorly fitted or top-dose-only effect; inactive means no such curve, though single readings can be large or run the other way; note: 0% is about no effect; nearly all actives have a fitted effect of over 55% in size; growth read by luminescence after 48 h
Cruzain inh Det: blocks cruzain activity in presence of Triton detergent. 200,000 tested, 0.43% active. AID 1478. purified cruzain, Z-FR-AMC fluorescence, 0.01% Triton. P25779. Potency, µM, inactives show max response, negative = inhibition, hits mostly inhibitors;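 note: plate controls were neutral wells for no effect and buffer without enzyme for full effect; nearly all actives have a fitted effect of over 40% in size; top concentration of the series not given in the record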
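Steps: dispense cruzain (1.5 nM final) in acetate buffer pH 5.5 with DTT and 0.01% Triton X-100; pin-transfer compounds; incubate 15 min RT; add Z-FR-AMC (2 uM final); read fluorescence every 30 s, using the 60 s intensity change.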
RE007 growth inh: less growth of the S. pombe RE007 Vpr strain; S. pombe RE007 Vpr strain, BacTiter-Glo ATP luminescence, 24 h; control for the full effect not named in the record; Potency, µM (top dose mostly 92.2 µM), inactives show at the highest dose activity change, negative = less growth; 360,000 tested, 0.21% active; AID 651644; active = well fitted falling curve with a large enough effect; inconclusive = small, poorly fitted or top-dose-only effect; inactive = no such curve, though single readings can be large or run the other way;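 note: % is set by controls: 0 for no effect and ±100 for the full control effect; nearly all actives have a fitted effect of over 50% in size; the assay follows cell death caused by Vpr and the record does not say whether a fall means rescue or toxicity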
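Fission yeast strain RE007, carrying one chromosomally integrated HIV-1 vpr copy, was seeded at OD 0.01 in PMG+AL medium with 23 nL pinned compound. After 24 h at 30 °C and 99% humidity, viability was read by BacTiter-Glo luminescence.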
NS1 inh: blocks influenza NS1 protein function. S. cerevisiae slowed by influenza A NS1, growth recovery by OD600. 270,000 tested, 0.4% active. Potency, µM (doses to about 46.1 µM), for the others: at the highest dose activity, positive = more growth. AID 2326; active means well fitted rising curve with a large enough effect; inconclusive means small, poorly fitted or top-dose-only effect; inactive means no such curve, though single readings can be large or run the other way; note: nearly all actives have a fitted effect of over 50% in size
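Recovery from NS1-induced slow growth read by OD600 in budding yeast switched to galactose assay medium (pH 6.0, -URA) at 1:100 dilution. Compound 23 nl per well; the matching strain lacking NS1 serves as control.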
* hit, by the source's call; ? = inconclusive; / = no result given; [ ] = another dose, or the depositor's remark. Unless noted, calls come from the whole dose curve; as a rule, active = well fitted curve in the direction sought with a large enough effect; inconclusive = small, poorly fitted or top-dose-only effect, or another doubt; inactive = no such curve, though single readings can be large; an effect the other way counts as inactive or inconclusive. Potency is the fitted concentration of half-maximal effect.

Second line of a record: MARV entry inh, Cruzain inh noDet, Lassa entry inh, StopGo reporter, SARS PLP yeast, Cruzain inh Det, RE007 growth inh, NS1 inh
1) O=C(CCCCn1c(=O)c2ccccc2n(CC(=O)NC2CCCC2)c1=O)NC1CCCC1
 : 20%, -17%, 13%, -19%, -6%, -0.6%, 3%, -2%
2) Cc1ccc2c(c1)sc1nc(=O)n(-c3ccccc3)c(=O)n12
 : ?, /, -27%[46.1 µM], 55%[activator], 0%, /, -3%, 1%
3) Cc1ccc(-c2csc(NC(=O)COC(=O)c3cccc(S(=O)(=O)N4CCOCC4)c3)n2)cc1
 : ?, -25%, -24%, -6%, -7%, -10%, -4%, -15%
4) Cc1ccc(S(=O)(=O)c2c[nH]c3ccc(C)cc3c2=O)cc1
 : /, /, /, -9%, 0%, /, 13%, 2%
5) Cc1ccc(NC(=O)CN(C)S(=O)(=O)c2cccs2)c(Br)c1
 : 29%[46.1 µM], /, ?, 49%[activator], 0%, /, 9%, -18%
6) CCN(CC(=O)Nc1sc2c(c1C#N)CCCC2)Cc1nc2ccccc2c(=O)[nH]1
 : -12%[46.1 µM], /, /, -22%, 3%, /, -7%, /
7) CN1CCN(C(=S)Nc2ccc(S(N)(=O)=O)cc2)CC1
 : /, /, /, -6%, 0%, /, 20%, 0%
8) CC(C)CN1C(=S)SC(C)(C)C1n1oc(=O)n(-c2ccc(Cl)cc2)c1=O (stereo not drawn)
 : ?, 1%, -19%, ?, -21%, -0.8%, -2%, -183%
9) O=C(NC(=S)Nc1cccc([N+](=O)[O-])c1)c1ccco1
 : 6%, -1%, 2%, 40%[activator], 17%, -1.0%, -4%, 13%
10) Cc1nn2c(=O)cc(COC(=O)c3ccc(NC(=O)COc4ccc(C)c(C)c4)cc3)nc2s1
 : /, -3%, 10%[46.1 µM], 11µM*, /, -1.9%, /, /
11) COc1ccc(CNC(=O)c2ccc(CS(=O)(=O)c3ccccc3OC)o2)cc1
 : /, -3%, -8%[46.1 µM], -13%, /, 0.7%, /, /
12) Cc1ccc2c(c1)Cc1nc3ccccc3nc1-2
 : 6.3µM*, /, ?, -72%, -16%, /, ?, /
13) CCS(=O)(=O)NCCc1csc(-c2ccccc2)n1
 : 20%, 0%, 13%, 13%, -1%, 2.0%, -9%, 1%
14) COc1ccc(CN(Cc2ccc(OC)cc2)S(=O)(=O)c2ccc(-n3cnnn3)c(C)c2)cc1
 : ?, ?, ?, -7%, -5%, -4.7%, 3%, 22%
15) O=[N+]([O-])c1cc(C(F)(F)F)ccc1-n1nnc2ccccc21
 : 15%, 6%, 17%, -22%, 12%, -5.4%, -13%, -4%
16) Cc1c(NC(=O)Nc2ccc(Cl)c(C(F)(F)F)c2)c(=O)n(-c2ccccc2)n1C
 : 1%[46.1 µM], -4%, 1%[46.1 µM], 0%, /, 0.1%, /, /
17) CCC1Oc2ccc(C)cc2N(CC(=O)N(Cc2ccc(C)o2)C2CCCC2)C1=O (stereo not drawn)
 : ?, -7%, ?, 22µM*, -38%, -17%, -6%, -1%
18) Cc1cccc2c(C(=O)N3CCN(C(=O)c4ccco4)CC3)cc(-c3cccc(Br)c3)nc12
 : ?, /, ?, 18µM*, -4%, /, -17%, 2%
19) COc1cc(C2N=C(N)Nc3nc4ccccc4n32)ccc1OCC(=O)O (stereo not drawn)
 : -4%[46.1 µM], 6%, 12%[46.1 µM], -15%, /, 0.5%, /, /
20) Cc1ccc(S(=O)(=O)/N=C(\CN2CCOCC2)N2CCCC2)cc1
 : 0%, -5%, 17%, /, 0%, 0.0%, -14%, 7%
21) CC(C)CC(=O)Nc1ccc2nc(SCC(=O)N3CCCC3)sc2c1
 : -18%[46.1 µM], -13%, 1%[46.1 µM], -2%, /, -1.0%, /, /
22) O=C1C2C3C=CC(c4ccccc4)(C2C(=O)N1c1cccc(Cl)c1)C1C(=O)N(c2cccc(Cl)c2)C(=O)C31 (stereo not drawn)
 : ?, -8%, ?, -28%, -8%, -7.3%, -1%, -8%
23) CCc1nc2ccc(C)cc2c(C(=O)Oc2cccc3cccnc23)c1C
 : -14%, 1%, -16%, 0%, -7%, -1.1%, 1%[3.69 µM], 12%
24) CCOC(=O)c1c(-c2ccccc2)oc2ccc(OCC(=O)NNC(=O)CCCC(=O)O)cc12
 : /, /, /, -5%, 0%, /, 16%, 1%
25) CCN(C(=O)c1cc2cc(OC)ccc2oc1=O)c1cccc(C)c1
 : 13%, -9%, -22%, -20%, 4%, -0.5%, -2%, -8%
26) Cc1ccc(C(NC(=O)N2CCOCC2)=C(Cl)Cl)cc1F
 : ?, 0%, -48%, /, 0%, 1.4%, 10%, 1%
27) Nc1nc(OCc2ccccc2)c2[nH]cnc2n1
 : ?, -16%, ?, -20%, /, -3.2%, 7%, 0%
28) O=[N+]([O-])c1ccc(-c2ccc(C=Nc3cccc4ccccc34)o2)cc1
 : 0%, ?, -11%, /, -3%, -13%, 0%, -21%
29) N#Cc1ccccc1Sc1ccccc1C(=O)OCC(=O)NC1CCS(=O)(=O)C1 (stereo not drawn)
 : 18%, -9%, 24%, -5%, -3%, -3.1%, ?, 5%
30) O=C(Nc1ccncc1)c1ccccc1[N+](=O)[O-]
 : 15%[46.1 µM], /, -1%[46.1 µM], -16%, -2%, /, -22%, /
31) O=C(CSc1nc(C2CC2)nc2ccccc12)Nc1cccc(O)c1
 : -15%[46.1 µM], /, -3%[46.1 µM], -26%, 0%, /, 8%, 2%
32) Cc1ccc(S(=O)(=O)NC(C)C(=O)Nc2cccc([N+](=O)[O-])c2)cc1 (stereo not drawn)
 : -24%[46.1 µM], /, 0%, -8%, 0%, /, 3%, /
33) CCc1nn(CC(=O)NCCCN(C)Cc2ccccc2)c(=O)c2cc3sc(C)cc3n12
 : /, /, /, -13%, 1%, /, 10%, -10%
34) CN1C(=O)CC(N2CCN(c3ccccc3)CC2)C1=O (stereo not drawn)
 : 21%, /, 23%, 16%, /, /, -10%, /
35) CC1(C)CC(=O)c2c(O)cc(OCc3ccc(Br)cc3)cc2O1
 : ?, -14%, 10%, 14%, -6%, -3.8%, -1%, 5%
36) CN(CCOc1ccc(-c2ccn(S(=O)(=O)c3ccc(Cl)cc3)n2)cc1)c1ccccn1
 : -25%, -29%, ?, ?, -2%, 2.4%, 9%, 25%
37) CCn1ncc(C2=NOC(C(=O)Nc3cccc(C(C)=O)c3)C2)c1C (stereo not drawn)
 : ?, -13%, -1%, ?, 3%, 1.0%, 0%, 3%
38) Cc1nc2cc(-c3ccccc3)nn2c(C)c1CCC(=O)N1CCC2(CC1)OCCO2
 : 7%, ?, 17%, 22%, 1%, -3.1%, 0%, -3%
39) CN(CC(=O)Nc1cccc(F)c1)C(=O)c1cccnc1Sc1ccccc1Cl
 : 1%, /, 7%, 14%, 2%, /, 0%, /
40) CCn1ncc(Br)c1C(=O)Nc1ccccc1C(F)(F)F
 : /, /, /, -18%, 0%, /, -12%, 2%
41) O=C(c1ccccc1)N1CCN(c2ccc(N3CCOCC3)nn2)CC1
 : -11%, /, 2%, -15%, 0%, /, -28%, /
42) COc1ccc2c(c1OC)C(=O)N1C2SC[C@H]1C(=O)NC1CC(C)(C)NC(C)(C)C1 (stereo partly drawn)
 : ?, 0%, 13%, ?, 6%, -1.0%, 3%, -6%
43) COCCn1c(SC(C)C(=O)Nc2ccc(N3CCOCC3)cc2)nnc1-c1ccncc1 (stereo not drawn)
 : 5%, /, ?, -9%, /, /, 0%, /
44) COC(=O)C1=C(NC(=O)c2cccc(OC)c2)CCS1
 : -5%, -4%, -7%, -7%, 8%, -3.1%, 1%, -19%
45) COCCCNC(=O)c1cc(C(=O)c2ccccc2Br)c[nH]1
 : 13%[46.1 µM], /, -29%, -3%, 0%, /, 63%, /
46) Brc1ccc(-c2nc(-c3ccccn3)no2)o1
 : 7.9µM*, 6%, 8.9µM*, -59%, -15%, 2.7%, ?, -74%
47) COc1cc(Cl)ccc1OCc1cc(C(=O)N2CCN(c3ccccn3)CC2)no1
 : /, /, /, -21%, -9%, /, -22%, -35%
48) CCOCC(=O)Nc1nnc(C2CCCCC2)s1
 : -25%[46.1 µM], 8%, -9%, 44%[activator], -5%, 0.6%, 3%, -42%
49) COc1ccc(Cl)cc1-n1c(N)c(C(N)=O)sc1=S
 : 8%, -1%, 2%, 0%, 7%, 0.3%, -8%, -32%
50) O=C(COc1ncnc2ccccc12)NCCc1ccccc1
 : 17%[46.1 µM], /, -4%, 1%, 3%, /, 1%, /
51) O=C(CSc1nc2ccccc2c(=O)n1CCC(=O)NC1CCCCC1)Nc1ccccc1Cl
 : /, 5%, -1%[46.1 µM], -8%, /, 1.9%, /, /
52) CC(=O)Nc1ccc(NC(=O)CSc2nnc(-c3ccco3)o2)cc1
 : 4%[46.1 µM], /, -1%[46.1 µM], -9%, -1%, /, 0%, /
53) COc1cc2c(cc1OC)CN(CCC(=O)c1ccc(Br)cc1)CC2
 : ?, /, -25%, ?, -23%, /, ?, /
54) COc1ccc2cc(C(=O)C3CCCN(C(=O)C4=NN(C)C(=O)CC4)C3)ccc2c1 (stereo not drawn)
 : /, /, /, -7%, 2%, /, 3%, -4%
55) COc1ccc(CCNC(=O)COc2nncc3ccccc23)cc1
 : ?, /, -1%, 12%, 2%, /, -15%, /
56) COc1ccccc1NC(=O)CSCC(=O)N1c2ccccc2CCc2ccccc21
 : ?, 5%, -14%, -24%, 9%, -3.8%, 5%, -42%
57) COc1ccc(-c2nc3n(c(=O)c2C#N)CCS3)c(OC)c1
 : /, /, /, -8%, 1%, /, -3%, 3%
58) O=C(Oc1ccc2c(c1)OCO2)C12CC3CC(CC(C3)C1)C2
 : 2%, 2%, /, 10%, 13%, -0.6%, -1%, -8%
59) CC(=O)n1cc([C@H]2C=C(C(=O)NCc3ccccc3)O[C@@H](OCc3ccc(CO)cc3)C2)c2ccccc21
 : /, /, /, -29%, -3%, /, 2%, ?
60) CC1(C)CC(=O)C(CCC(=O)c2ccccc2)C(C)(C)N1 (stereo not drawn)
 : -18%, -7%, -5%, -26%, 3%, 6.1%, -4%, 2%
